Sfp PPTase inh: qHTS Assay for Inhibitors of Bacillus subtilis Sfp phosphopantetheinyl transferase (PPTase); 4'-phosphopantetheinyl transferase ffp (Bacillus subtilis), Q9F4F7; 3.5% of 310,000 active; Potency, µM, inactives show max response, negative = inhibition, usual class: inhibitors; Biochemical Sfp PPTase activity, qHTS; active = well fitted inhibition curve with a large enough effect; inconclusive = small, poorly fitted or top-dose-only effect, or another doubt; inactive = no such curve, though single readings can be large or run the other way;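 note: the enzyme is Sfp with the accession as filed and its product quenches rhodamine fluorescence; potency is the fitted concentration of half-maximal effect; 0% = enzyme reaction without inhibitor and -100% = no enzyme wells; top concentration of the series not given in the record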
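Compounds were incubated with enzyme (final 15 nM) for 15 min at room temperature before substrate addition started the reaction. Fluorescence at 525 nm excitation, 598 nm emission was recorded immediately and after 30 minutes.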
gsp agonist: qHTS for Agonist of gsp, the Etiologic Mutation Responsible for Fibrous Dysplasia/McCune-Albright Syndrome: qHTS; gsp mutant cells, cAMP HTRF, 30 min; control for the full effect not named in the record; Potency, µM (titrated, usually from 76.9 µM), without a hit: at the highest dose activation (cAMP increase), most hits filed as activators; 0.13% of 340,000 active; active = well fitted activation curve with a large enough effect; inconclusive = small, poorly fitted or top-dose-only effect, or another doubt; inactive = no such curve, though single readings can be large or run the other way; cell line not stated here;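 note: phosphodiesterase inhibitor Ro 20-1724 added with compounds to block cAMP breakdown; potency is the fitted concentration of half-maximal effect; nearly all actives have a fitted effect of over 60% in size; about a fifth of the inactives were tested at one dose only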
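Cells in DMEM/10% FBS with G418 were pretreated with compounds in DMSO plus […] (300 uM stock) for 30 min at 37C. cAMP was measured by HTRF (cAMP-d2 plus anti-cAMP antibody-K) after 30 min at room temperature.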
Menin-MLL FL inh: qHTS Assay for Inhibitors Targeting the Menin-MLL Interaction in MLL Related Leukemias: Competition With Fluorescein Labeled MLL-derived Peptide | FP activity change, % at 61.4 µM | AID 1766, 2009 | Fluorescence polarization, fluorescein-MLL peptide displacement from menin | 290,000 tested, under 10 active; inconclusive = falling polarisation curve, or a change in total fluorescence; inactive = total fluorescence flat and polarisation flat or rising; no compound was filed as active; the % refers to the polarisation; negative = inhibition;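 note: % of control where 0% means no effect; inhibitors lower the polarisation; unlabelled MLL peptide was the positive control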
gsp antag: qHTS for Antagonists of gsp, the Etiologic Mutation Responsible for Fibrous Dysplasia/McCune-Albright Syndrome: qHTS. gsp-mutant cells, cAMP HTRF, 30 min; control for the full effect not named in the record. Potency, µM (doses to about 76.9 µM), for inactives: at the top dose activity change, negative = inhibition, most hits filed as inhibitors. 0.4% of 340,000 active. AID 624288, 2012; active = falling curve of any shape with a large fitted effect; inconclusive = falling curve, mostly with a smaller effect; inactive = flat or rising curve; cell line not stated here;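 note: intracellular cAMP measured with PDE inhibitor Ro 20-1724 present during compound exposure; potency is the fitted concentration of half-maximal effect; % is set by controls: 0 for no effect and ±100 for the full control effect; nearly all actives have a fitted effect of over 65% in size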
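G418-selected cells were plated in DMEM/10% FBS for 16-24 h at 37C, then treated with compounds plus the PDE inhibitor […] (300 uM solution added) for 30 min at 37C. Intracellular cAMP was measured by HTRF after 30 min lysis at room temperature.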
TRPV1 potentiator: HTS Assay for Compounds that Act as Potentiators of the Vanilloid Receptor 1; TRPV1-expressing cells, Fluo-8 calcium influx, capsaicin EC20 potentiation; host cell line not named in the record; control for the full effect not named in the record; potentiation, % at 8.33 µM; 0.02% of 320,000 active; AID 540277, 2011; active means potentiation above 80%; inconclusive means 30% to 80%; inactive means below 30%; note: 0% is about no effect
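TRPV1-expressing cells were cultured overnight at 35.5C and loaded with Fluo-8 calcium dye for 40 to 90 min at room temperature. After a 10 s baseline, compound was added and calcium influx was read kinetically for 3 min (ex 480/em 520 nm).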
TRPML1 blocker: qHTS for Inhibitors of the Human Mucolipin Transient Receptor Potential 1 (TRPML1); Mucolipin-1 (Homo sapiens), Q9GZU1; AID 624415, 2012; activity change, negative = inhibition, % (concentration not given with the values); TRPML1-inducible cells, Ca2+ dye fluorescence, FDSS; hits give low values; inhibition of EC80 agonist-evoked calcium signal; 0.02% of 390,000 active; in the data active means activity change below about -50%; inconclusive means about -30% to -50%; inactive means above about -30%;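 note: stimulus is agonist 54-4 at its EC80 concentration; % is set by controls: 0 for no effect and ±100 for the full control effect; compound concentration not given in the record; the text of the record puts the active cut at -80%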
Target sequence (Q9GZU1 whole entry, looked up): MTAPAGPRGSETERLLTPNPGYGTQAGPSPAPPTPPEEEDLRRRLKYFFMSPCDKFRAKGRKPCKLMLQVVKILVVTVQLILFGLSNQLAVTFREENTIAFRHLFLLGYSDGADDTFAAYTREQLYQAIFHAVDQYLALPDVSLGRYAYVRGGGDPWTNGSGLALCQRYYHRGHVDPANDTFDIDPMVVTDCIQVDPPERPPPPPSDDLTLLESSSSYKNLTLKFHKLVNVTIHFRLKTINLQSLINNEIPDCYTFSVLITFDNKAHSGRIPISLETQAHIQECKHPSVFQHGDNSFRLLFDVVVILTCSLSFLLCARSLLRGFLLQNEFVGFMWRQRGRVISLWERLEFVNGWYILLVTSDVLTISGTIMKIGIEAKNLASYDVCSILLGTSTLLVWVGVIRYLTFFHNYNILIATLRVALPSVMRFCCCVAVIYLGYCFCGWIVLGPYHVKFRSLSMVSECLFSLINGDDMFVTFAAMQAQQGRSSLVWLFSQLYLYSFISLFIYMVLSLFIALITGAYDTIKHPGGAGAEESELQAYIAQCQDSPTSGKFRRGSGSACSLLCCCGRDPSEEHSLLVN
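TRPML1-DL cells, Tet-induced overnight (~16 h, 37 °C) at 1,500 cells/well, were loaded with Ca8 no-wash dye plus quencher for 45-90 min at room temperature. Compounds were pinned during FDSS kinetic reading; agonist 54-4 at EC80 (4 uM final) then added.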
ClpP mod: qHTS Assay for Activators of ClpP. ATP-dependent Clp protease proteolytic subunit (Bacillus subtilis (strain 168)), P80244. purified B. subtilis ClpP, FRET peptide cleavage, 20 min. Potency, µM (doses to about 57.5 µM), inactives show top-dose activity change, negative = active. 1.9% of 340,000 active; active = well fitted falling curve with a large enough effect; inconclusive = small, poorly fitted or top-dose-only effect; inactive = no such curve, though single readings can be large or run the other way; note: potency is the fitted concentration of half-maximal effect; the source files actives as falling curves though it sought activators and does not explain the sign; nearly all actives have a fitted effect of over 65% in size; many hits overshoot -100%
Target sequence (P80244 whole entry, looked up): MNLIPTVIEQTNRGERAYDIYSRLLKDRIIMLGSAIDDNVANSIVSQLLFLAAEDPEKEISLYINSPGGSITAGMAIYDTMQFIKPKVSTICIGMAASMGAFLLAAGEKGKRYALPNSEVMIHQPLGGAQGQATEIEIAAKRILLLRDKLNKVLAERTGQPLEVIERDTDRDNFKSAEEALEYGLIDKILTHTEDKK
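Purified B. subtilis ClpP, 10 microg/mL final in Tris/HCl pH8 with KCl, BSA, glycerol and Tween-20, cleaved an Abz/nitrotyrosine-quenched decapeptide. Fluorescence (ex 320, em 430) was read at 0 and 20 min at room temperature. Delta was normalized to 5.8 microM ADEP and DMSO/no-enzyme controls.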
Numbers without * were called inactive; ? = inconclusive; / = no result given; & = joins results of further samples; [ ] = dose if it differs, or a comment.

SMILES	Sfp PPTase inh	gsp agonist	Menin-MLL FL inh	gsp antag	TRPV1 potentiator	TRPML1 blocker	ClpP mod
CCN1CCN(CCOc2cccc(Oc3ccccc3)c2)CC1	-3%	16%	-0.3	-4%	11	48	-0.6%
O=C(Nc1ccc2c(c1)OCCO2)c1cccc(S(=O)(=O)N2CCOCC2)c1	17%	2%	-0.5	7%	-11	-5	0.3%
COc1cccc(N2CCN(c3ccc4nnc(CCC(=O)Nc5cc(C)ccn5)n4n3)CC2)c1	-2%	1%	/	-10%	-2	42	-2.9%
CC(C(=O)N(C)C1CCCCC1)N1CCC(C(N)=O)CC1 (stereo not given)	0%	-12%	-0.6	14%	4	27	/
Cc1noc(NS(=O)(=O)c2ccc(NC(=O)C(Cl)(Cl)Cl)cc2)c1C	9%	-1%[15.4 µM]	-5.4	10%	-4	-8	?
COc1cc([N+](=O)[O-])cc(/C=N/NC(=O)c2cccnc2)c1O	1%	3%	4.4	-7%	-14	3	-0.2%
COc1ccc(NC(=O)COc2nsnc2N2CCOCC2)cc1	0%	2%	-6.0	14%	-23	-6	-3.1%
COC(=O)CSc1nnc(Cc2cc(=O)[nH]c(=O)[nH]2)n1-c1cccc(OC)c1	0%	17%	-6.9	12%	12	11	0.7%
O=C(CNC(=S)N(Cc1ccc(F)cc1)C1CCCCC1)NCCN1CCOCC1	17%	7%[15.4 µM]	-6.1	-10%	-17	26	/
COc1ccccc1NC(=O)Nc1ccccc1N1CCOCC1	7%	-2%[15.4 µM]	0.6	-13%	3	17	/
Cc1ccc(NC(=O)c2c(C(F)(F)F)nn(C)c2SCc2ccc(Cl)cc2)cc1C	23%	-52%[inhibitor]	1.2	-28%	10	89	-3.5%
COc1ccc(NC(=O)C2CCN(S(C)(=O)=O)CC2)cc1OC	5%	?	0.1	5%	-7	-4	-0.8%
O=C(c1cccc(F)c1)N1CCN(Cc2cccc(Br)c2)CC1	-29%	14%	0.0	-11%	-21	/	0.5%
CCc1cc(-c2n[nH]c(C)c2-c2ccccc2Cl)c(O)cc1OC	12%	6%	7.0	7%	12	/	-9.5%
Cc1ccc(CS(=O)(=O)Cc2ccc(C(=O)NCCc3ccccc3)o2)cc1	9%	?	/	3%	7	-9	-2.0%
COc1c(O)cc2oc(-c3ccc(O)cc3)cc(=O)c2c1O	-13%&-9%	/	-0.4&-2.2	-23%	3	0	-0.4%
O=C(CSc1nn(-c2ccc(Cl)cc2)c(=S)s1)NCC1CCCO1 (stereo not given)	-6%	3%	2.3	0%	-21	-5	2.2%
O=C(c1ccc(Cl)s1)N1CCc2ccccc21	14%	-4%	4.4	-19%	-18	-10	-1.8%
CC(=O)N/C(=C\c1cccc([N+](=O)[O-])c1)C(=O)NC(C)C	0%	15%[15.4 µM]	1.7	6%	?	31	-0.7%
NC(=O)CN1CCCC1c1ccc2c(c1)OCCO2 (stereo not given)	12%	-14%[15.4 µM]	0.1	-4%	17	-6	/
O=C(COC(=O)c1ccc([N+](=O)[O-])o1)Nc1ncc(Cl)cc1Cl	/	?	/	8%	/	13	0.3%
Cc1nc(C(=O)NC2CC2)sc1C1(C)CC(c2ccccc2)=NO1 (stereo not given)	-14%	/	-0.6	1%	-7	-4	-0.2%
COc1ccc(-n2c(C)cc(C(=O)COC(=O)Cc3n[nH]c(=O)c4ccccc34)c2C)cc1	-8%	-10%	/	-21%	-12	-6	-0.3%
CC1C(=O)N(S(=O)(=O)c2ccc([N+](=O)[O-])cc2)[C@H]1c1ccc2ccccc2c1 (stereo not given in full)	-21%	/	-8.4	/	/	-11	/
FC(F)(F)c1ccccc1-c1nc(-c2ccncc2)no1	-5%	20%[15.4 µM]	0.4	8%	-8	-14	-2.6%
O=C(c1ccc(N2CCOCC2)nc1)N1CCOCC1	9%	-3%	6.1	5%	-18	4	-4.1%
CC(C)Cn1c(O)c(/C=C2\C=NN=C2c2ccccc2)sc1=S	10%	-7%[15.4 µM]	5.7	-12%	10	-8	0.4%
Cc1ccc(NC2CC(C)NC(=S)N2)cc1 (stereo not given)	20%	4%[15.4 µM]	7.0	10%	5	4	1.4%
O=C1CCCC2=C1C1(CCCC1)N=C(Nc1nc3ccccc3s1)N2	4%	-6%	3.4	-14%	-7	28	28µM*
CCn1c(SCC(=O)NC2CCCCC2)nc2ccccc2c1=O	7%	-9%	/	9%	-6	14	-1.5%
COc1ccc(C2=NS(=O)(=O)N(C)C(C(=O)Nc3ccc4c(c3)OCO4)=C2)cc1OC	10%	-34%[inhibitor]	2.1	?	?	2	-3.7%
CCOC(=O)Cn1c(=O)c2c(nc3n2CCN3Cc2ccccc2)n(C)c1=O	12%	?	1.8	-23%	4	5	0.0%
COc1ccc2c(c1)C1(C)CC(C)(C)N2C(=O)N1c1ccccc1 (stereo not given)	-5%	-42%[inhibitor]	-1.6	13%[15.4 µM]	-1	12	?
CC(O)(CS(=O)(=O)Cc1ccccc1)C(=O)Nc1cccc(C(F)(F)F)c1 (stereo not given)	12%	?	1.7	1%	/	-1	0.3%
Cc1ccc2oc(-c3cccc(NC(=O)c4cc(-n5cnnc5)ccc4Cl)c3)nc2c1	18%	7%	4.8	8%	-2	-7	134%
CCOc1nc(N=C(N)N)nc2c(C)cccc12	-8%	39%	6.2	13%	-4	-1	16µM*
CCOc1ccccc1OC(=O)c1ccco1	8%	-82%[inhibitor]	-0.7	6%	16	-18	-3.6%
CC(=O)c1cc(C(=O)N2CCCC(C(=O)c3ccc(Cl)cc3)C2)cs1 (stereo not given)	-2%	?	2.0	5%	-19	2	0.6%
O=[N+]([O-])c1cccc(C(=NCc2ccccc2)NO)c1	-5%	?	4.4	-2%	4	2	1.2%
CCN(C(=O)Cc1c(C(=O)O)n(CC)c2ccccc12)c1ccccc1C	2%	10%	-2.7	0%	?	1	-9.2%
CCOc1ccc(CCNC(=O)COC(=O)c2ccc(Cl)nc2)cc1OCC	/	31%	/	5%	-7	-17	0.8%
COc1ccccc1/C=C/C(=O)Nc1cccc(C(C)=O)c1	-2%	5%[15.4 µM]	-0.4	-16%	-1	-28	/
Cc1cccc(C)c1NC(=O)CN(C)C(=O)c1ccc2nc[nH]c2c1	/	?	/	12%	1	6	-1.1%
COc1ccc(CCN2C(=O)C3C4C=CC(C5CC45)C3C2=O)cc1OC (stereo not given)	11%	25%[15.4 µM]	-1.0	1%	-10	40	-13%
Cc1ccc(NC(=O)c2ccc(CNS(=O)(=O)c3cccc(C(F)(F)F)c3)cc2)cc1	10%	-9%	0.3	7%	2	-21	-7.3%
COc1cc(Br)cc2cc(C(=O)N3CCN(c4ccccn4)CC3)c(=O)oc12	3%	3%	11	-12%	7	19	-0.3%
CC1(CCc2ccc3c(c2)OCO3)NCCc2c1[nH]c1ccccc21 (stereo not given)	2%	-30%	3.8	11%	-1	7	0.4%
COc1cc(-c2nnc(SCC(=O)Nc3ccc4c(c3)OCCO4)o2)cc(OC)c1OC	-2%	-17%	1.6	-4%	-9	17	-0.9%
CC(=O)N=C1SC2CS(=O)(=O)CC2N1c1c(Cl)cccc1Cl (stereo not given)	18%	2%	0.4	8%	-9	9	32µM*
O=c1[nH]ncc(N2CCCCCC2)c1Cl	6%	15%	1.1	3%	7	-16	/
Further results.
SMILES	Sfp PPTase inh	gsp agonist	Menin-MLL FL inh	gsp antag	TRPV1 potentiator	TRPML1 blocker	ClpP mod
COCCCn1c(=O)c2sccc2n(Cc2cccc(F)c2)c1=O	16%	17%[15.4 µM]	-4.8	0%	-10	4	0.3%
CCC(C)NC(=O)COc1ccc(Br)c(C)c1 (stereo not given)	2%	-32%	-5.3	-1%	-20	-5	-0.1%
CC1Sc2ccc(S(=O)(=O)CCC(=O)Nc3cc(F)ccc3F)cc2NC1=O (stereo not given)	14%	-8%	0.9	-4%	1	-23	1.0%
COC(=O)CSc1ccc2c(N)c(C(=O)OC)sc2c1	4%	1%	2.3	-33%	-1	21	?
CCCCOc1ccc(S(=O)(=O)N2CCN(C)CC2)cc1	/	3%[15.4 µM]	/	1%	/	-6	-0.5%
O=C(CSc1ncn[nH]1)Nc1ccnc2ccccc12	12%	?	-4.5	-1%	4	21	0.9%
CC(=O)c1cccc(NC(=O)c2ccc(S(=O)(=O)N3CCCC3)cc2)c1	-7%	0%	-0.3	-9%	-18	-9	/

Compound activity as filed in PubChem BioAssay.
